NOMO-1 viab – STK33 inhibitor candidate reducing NOMO-1 cell viability. NOMO-1 AML viability, CellTiter-Glo luminescence, 72 h. inhibition, % (test concentration not listed). hit rate 7.5% among 37,000;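 active = most replicates above 80%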;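 also: wells of about 30 µL received 25 nL stock; 0% = median of vehicle wells and 100% = reference inhibitor level; the first replicate is given; inactives centre near 10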
The depositor's hits bear a star. This is a subset; count on the stated rates, not on these rows.

SMILES | NOMO-1 viab
Cc1cc(C)cc(N(C(C)C(=O)Nc2cccc(Cl)c2)S(C)(=O)=O)c1 (configuration not stated) | 32
Cc1noc(C)c1S(=O)(=O)Nc1cccc2c1O[C@H](CN(C)S(=O)(=O)c1ccccc1)[C@H](C)CN([C@@H](C)CO)C2=O | 61
COc1ccc(NC(=O)N(C)C[C@@H]2Oc3ccc(NC(=O)Cc4ccccc4)cc3CC(=O)N([C@H](C)CO)C[C@@H]2C)cc1 | 5
C=CC1CN(C(C)=O)CCC1CCC(=O)c1ccnc2ccccc12 (configuration not stated) | 24
C[C@@H]1CN([C@H](C)CO)C(=O)Cc2cc(NC(=O)C3CCCCC3)ccc2O[C@@H]1CN(C)S(=O)(=O)c1cn(C)cn1 | 9
Cc1ccc(S(=O)(=O)N(C)C[C@H]2Oc3ccc(NS(=O)(=O)c4ccccc4)cc3C(=O)N([C@H](C)CO)C[C@@H]2C)cc1 | -16
Cc1cc(C)c(OC(=O)/C=C/c2cccs2)c(C)c1 | 13
C[C@@H]1CN([C@@H](C)CO)C(=O)c2cccc(NC(=O)C3CCOCC3)c2O[C@H]1CN(C)S(=O)(=O)c1cn(C)cn1 | 0
Cc1noc(C)c1NC(=O)Nc1cccc2c1O[C@@H](CN(C)Cc1ccc(Cl)c(Cl)c1)[C@@H](C)CN([C@@H](C)CO)C2=O | 19
Cc1noc(C)c1NC(=O)Nc1cccc2c1O[C@H](CN(C)S(=O)(=O)c1cccs1)[C@@H](C)CN([C@@H](C)CO)C2=O | 12
C[C@@H]1CN([C@H](C)CO)C(=O)Cc2cc(NC(=O)CCC(F)(F)F)ccc2O[C@@H]1CN(C)C(=O)Nc1ccc(C(F)(F)F)cc1 | -22
C[C@@H]1CN([C@H](C)CO)C(=O)c2cccc(NC(=O)c3ccc(-c4nccs4)cc3)c2O[C@H]1CN(C)Cc1ccc(Oc2ccccc2)cc1 | 61
C[C@@H]1CN([C@H](C)CO)C(=O)c2cc(NC(=O)c3ccncc3)ccc2O[C@@H]1CN(C)Cc1ccc(-c2ccccc2)cc1 | 11
CCCn1c2ccccc2c2nnc(SCC(N)=O)nc21 | 16
C[C@@H]1CN([C@@H](C)CO)C(=O)c2cc(NS(=O)(=O)c3ccc(F)cc3)ccc2O[C@@H]1CN(C)C(=O)Nc1ccc(C(F)(F)F)cc1 | 36
O=C(COc1ccc(Cl)cc1Br)Nc1cccnc1 | 5
CCc1cc(C(=O)OC)c(NC(=S)Nc2ccc(OC)cc2[N+](=O)[O-])s1 | 22
Cc1ccc(S(=O)(=O)Nc2ccc3c(c2)CC(=O)N([C@@H](C)CO)C[C@@H](C)[C@@H](CN(C)Cc2ccc(C(=O)O)cc2)O3)cc1 | -10
COC(=O)c1ccc(NC(=O)C2Cc3ccccc3CN2S(=O)(=O)c2ccc(F)cc2)cc1 (configuration not stated) | 21
COC(=O)c1ccccc1NC(=O)CN(c1ccc(F)c(Cl)c1)S(C)(=O)=O | -2
C[C@@H]1CN([C@H](C)CO)C(=O)c2cc(NC(=O)CCCN(C)C)ccc2O[C@H]1CN(C)C(=O)Nc1ccccc1 | 3
C[C@@H]1CN([C@H](C)CO)C(=O)Cc2cc(NC(=O)CCC(F)(F)F)ccc2O[C@@H]1CN(C)S(=O)(=O)c1ccc(F)cc1 | -9
CC(C)NC(=O)Nc1cccc2c1O[C@H](CN(C)S(=O)(=O)c1ccc(F)cc1)[C@H](C)CN([C@H](C)CO)C2=O | 5
COc1ccc(NC(=O)Nc2cccc3c2O[C@@H](CN(C)Cc2ccc(-c4ccccc4)cc2)[C@@H](C)CN([C@H](C)CO)C3=O)cc1 | 113*
CC(C)NC(=O)N(C)C[C@H]1OCCCC[C@@H](C)Oc2ccc(NC(=O)c3ccncc3)cc2C(=O)N([C@H](C)CO)C[C@@H]1C | 6

Next section:
SMILES | NOMO-1 viab
C[C@H]1CN([C@@H](C)CO)C(=O)c2cc(NC(=O)Nc3ccc4c(c3)OCO4)ccc2O[C@H]1CN(C)C(=O)NC1CCCCC1 | 9
COc1ccccc1C1CCN(C(=O)C2CCCCC2)CC1 | 62
Cc1ccc(S(=O)(=O)Nc2ccc3c(c2)C(=O)N([C@H](C)CO)C[C@H](C)[C@H](CN(C)Cc2ccc(C(=O)O)cc2)OCCCC[C@@H](C)O3)cc1 | 2
CCOC(=O)c1c(NC(=O)c2ccc(C)c(S(=O)(=O)N3CCOCC3)c2)sc(C)c1C | 68
COC(=O)C1=CO[C@@H](O[C@@H]2O[C@H](CO)[C@@H](O)[C@H](O)[C@H]2O)[C@@H]2[C@@H](C)[C@@H](OC(=O)C3=CO[C@@H](O[C@@H]4O[C@H](CO)[C@@H](O)[C@H](O)[C@H]4O)[C@@H]4[C@@H](C)[C@@H](OC(C)=O)C[C@H]34)C[C@H]12 | 19
O=C(NCc1nc2ccccc2n1Cc1ccccc1)c1ccccc1 | 15
COc1cc(Cl)c(C)cc1NC(=O)CSc1nc2ccccc2s1 | 14
COc1cc2c(cc1NC(=O)C(C)Oc1ccc(Br)cc1)oc1ccccc12 (configuration not stated) | 15
C[C@@H]1CN([C@H](C)CO)C(=O)c2cccc(NC(=O)C3CCOCC3)c2O[C@@H]1CN(C)Cc1ccc2c(c1)OCO2 | -3
Cc1c(C(=O)O)oc2ccccc12 | 23
C[C@@H]1CN([C@@H](C)CO)C(=O)Cc2cc(NC(=O)Nc3cccc4ccccc34)ccc2O[C@@H]1CN(C)Cc1ccc(-c2ccccc2)cc1 | 52
CCn1c(SCC(=O)Nc2cccc3ccccc23)nnc1-c1ccc(Cl)c(Cl)c1 | 10
C[C@H](CO)N1C[C@H](C)[C@@H](CN(C)Cc2ccc(-c3ccccc3)cc2)Oc2ccc(N(C)C)cc2C1=O | 24
C[C@@H]1CN([C@@H](C)CO)C(=O)c2cc(NC(=O)C3CCCCC3)ccc2O[C@@H]1CN(C)C(=O)NC1CCCCC1 | 34
C[C@H]1CN([C@@H](C)CO)C(=O)c2cccc(NC(=O)Nc3ccc4c(c3)OCO4)c2O[C@@H]1CN(C)S(=O)(=O)c1cn(C)cn1 | 7
O=C(Nc1ccccc1C(=O)O)c1cccc(S(=O)(=O)Nc2ccccc2F)c1 | -4
CC(Sc1nc2ccccc2c(=O)[nH]1)C(=O)Nc1cccc(Cl)c1 (configuration not stated) | -7
C[C@@H]1CCCCO[C@@H](CN(C)C(=O)CCC(F)(F)F)[C@@H](C)CN([C@H](C)CO)C(=O)c2cc(NC(=O)Nc3ccc4c(c3)OCO4)ccc2O1 | 11
C[C@@H]1CCCCO[C@H](CN(C)C(=O)C2CCCCC2)[C@@H](C)CN([C@H](C)CO)C(=O)c2cc(NC(=O)Nc3cccc4ccccc34)ccc2O1 | 44
C[C@@H]1CN([C@@H](C)CO)C(=O)Cc2cc(NC(=O)CCC(F)(F)F)ccc2O[C@@H]1CN(C)Cc1ccc(C(=O)Nc2ccccc2N)cc1 | 91*
Cc1ccc(S(=O)(=O)Nc2ccc3c(c2)C(=O)N([C@H](C)CO)C[C@H](C)[C@@H](CN(C)S(=O)(=O)c2ccc(Cl)cc2)O3)cc1 | -5
Cc1ccc(S(=O)(=O)N(C)C[C@H]2Oc3ccc(NS(=O)(=O)c4c(C)noc4C)cc3C(=O)N([C@@H](C)CO)C[C@H]2C)cc1 | 20
C[C@H]1CN([C@@H](C)CO)C(=O)Cc2cc(NC(=O)CCCCCC(=O)Nc3ccccc3N)ccc2O[C@@H]1CN(C)Cc1ccncc1 | 20
CCn1c(SCC(=O)Nc2ccc(Br)c(Cl)c2)nnc1-c1ccccc1O | 3
CN1CCN(Cc2nc(N)nc(Nc3ccccc3)n2)CC1 | -7

Further results:
SMILES | NOMO-1 viab
C[C@H]1CN([C@@H](C)CO)C(=O)Cc2cc(NS(=O)(=O)c3ccc(F)cc3)ccc2O[C@@H]1CN(C)Cc1ccc(Cl)c(Cl)c1 | 57
Cc1noc(C)c1NC(=O)Nc1cccc2c1O[C@@H](CN(C)C(=O)Nc1cccc3ccccc13)[C@H](C)CN([C@@H](C)CO)C2=O | -4
C[C@@H]1CN([C@@H](C)CO)C(=O)c2cc(NC(=O)NC3CCCCC3)ccc2O[C@H]1CN(C)C(=O)Nc1ccc2c(c1)OCO2 | -4
Cc1ccc(S(=O)(=O)Nc2cccc3c2O[C@H](CN(C)C(=O)NC(C)C)[C@H](C)CN([C@H](C)CO)C3=O)cc1 | 11
O=C(CSc1nccc(=O)[nH]1)N1CCc2ccccc21 | 16
COc1ccc(NC(=O)N(C)C[C@H]2Oc3c(NC(=O)c4cc(C)nn4C)cccc3C(=O)N([C@H](C)CO)C[C@H]2C)cc1 | -8
COc1ccc(C)cc1S(=O)(=O)N(C)CC(=O)N1CCN(c2ccccc2F)CC1 | 12
C[C@@H]1CCCCO[C@@H](CN(C)CC2CC2)[C@@H](C)CN([C@H](C)CO)C(=O)c2cc(NS(=O)(=O)c3ccc(Cl)cc3)ccc2O1 | 38
Cc1noc(C)c1NC(=O)N(C)C[C@@H]1Oc2ccc(NS(=O)(=O)c3ccccc3)cc2C(=O)N([C@H](C)CO)C[C@H]1C | 4
C[C@H](CO)N1C[C@H](C)[C@@H](CN(C)Cc2ccc(-c3ccccc3)cc2)Oc2c(NS(=O)(=O)c3ccccc3)cccc2C1=O | 25
C[C@@H]1CCCCO[C@H](CN(C)Cc2ccccc2)[C@@H](C)CN([C@H](C)CO)C(=O)c2cc(N(C)C)ccc2O1 | 17
CCc1ccc(NS(=O)(=O)c2ccc(OC)cc2)cc1 | 113*
Cc1ccc(S(=O)(=O)Nc2ccc3c(c2)C(=O)N([C@@H](C)CO)C[C@@H](C)[C@H](CN(C)S(=O)(=O)c2ccc(C)cc2)O3)cc1 | -6
CCN(c1ccccc1)S(=O)(=O)c1ccc(C)cc1 | 25
COc1ccc(NC(=O)N(C)C[C@H]2Oc3c(NC(=O)Nc4ccccc4)cccc3C(=O)N([C@H](C)CO)C[C@H]2C)cc1 | 18
O=C(Cn1cnc2sc(-c3ccccc3)cc2c1=O)Nc1ccc(F)c(Cl)c1 | 5
C[C@@H]1CN([C@@H](C)CO)C(=O)c2cc(NC(=O)Cn3cnnn3)ccc2O[C@@H]1CN(C)S(=O)(=O)c1ccc(Cl)cc1 | 11
CC(C)NC(=O)N(C)C[C@@H]1Oc2c(NC(=O)c3nc4ccccc4s3)cccc2C(=O)N([C@H](C)CO)C[C@H]1C | -10
CC(C)NC(=O)N(C)C[C@@H]1Oc2ccc(NC(=O)Nc3ccccc3)cc2C(=O)N([C@@H](C)CO)C[C@@H]1C | 14
C[C@@H]1CN([C@H](C)CO)C(=O)c2cc(NC(=O)CCC(F)(F)F)ccc2O[C@@H]1CN(C)CC1CCCCC1 | -24
C[C@@H]1CCCCO[C@H](CN(C)S(=O)(=O)c2ccc(F)cc2)[C@@H](C)CN([C@H](C)CO)C(=O)c2cc(NC(=O)Nc3ccc4c(c3)OCO4)ccc2O1 | 50
Cc1noc(C)c1NC(=O)Nc1ccc2c(c1)CC(=O)N([C@@H](C)CO)C[C@H](C)[C@H](CN(C)S(C)(=O)=O)O2 | -3
Cc1noc(C)c1NC(=O)Nc1ccc2c(c1)CC(=O)N([C@H](C)CO)C[C@H](C)[C@H](CN(C)S(=O)(=O)c1c(C)noc1C)O2 | 0
COc1ccc2c(c1OC)CN(C)CCc1cc3c(cc1C(=O)C2)OCO3 | 6
COC(=O)c1cc(OC)c(OC)cc1NC(=O)COc1ccccc1Cl | -13

Reprinted at random: 5 records from the list.
SMILES | NOMO-1 viab
C[C@@H]1CN([C@@H](C)CO)C(=O)c2cc(NC(=O)Cn3cnnn3)ccc2O[C@@H]1CN(C)S(=O)(=O)c1ccc(Cl)cc1 | 11
CCN(c1ccccc1)S(=O)(=O)c1ccc(C)cc1 | 25
Cc1noc(C)c1NC(=O)Nc1cccc2c1O[C@@H](CN(C)C(=O)Nc1cccc3ccccc13)[C@H](C)CN([C@@H](C)CO)C2=O | -4
COc1ccc(C)cc1S(=O)(=O)N(C)CC(=O)N1CCN(c2ccccc2F)CC1 | 12
O=C(CSc1nccc(=O)[nH]1)N1CCc2ccccc21 | 16

(cont.)
SMILES | NOMO-1 viab
C[C@@H]1CN([C@@H](C)CO)C(=O)c2cc(NS(=O)(=O)c3ccccc3)ccc2O[C@@H]1CN(C)Cc1ccc(Cl)c(Cl)c1 | 103*
C[C@@H]1CN([C@H](C)CO)C(=O)c2cccc(NC(=O)NC3CCCCC3)c2O[C@@H]1CN(C)C(=O)Nc1ccc(F)cc1 | 6
Cc1ccc(N2C(=O)C(N3C(=O)c4ccccc4C3=O)C2c2ccc(N(C)C)cc2)cc1Cl (configuration not stated) | 17
O=C(O)c1ccc(CNC(=O)c2cccnc2C(=O)O)cc1 | 19
Cc1ccc(S(=O)(=O)Nc2cccc3c2O[C@@H](CN(C)CC2CC2)[C@H](C)CN([C@H](C)CO)C3=O)cc1 | 8
COc1ccc(NC(=O)Cn2cnc3ccccc3c2=O)cc1OC | 11
Cc1cc(Cl)c(S(=O)(=O)N2CCCCC2)cc1OCC(N)=O | -13
C[C@H](CO)N1C[C@H](C)[C@H](CN(C)Cc2ccc(C(=O)Nc3ccccc3N)cc2)Oc2c(NS(=O)(=O)c3ccc(F)cc3)cccc2C1=O | 133*

Given as labelled records: part of the list above.
> C[C@@H]1CN([C@@H](C)CO)C(=O)c2cc(NS(=O)(=O)c3ccccc3)ccc2O[C@@H]1CN(C)Cc1ccc(Cl)c(Cl)c1
- NOMO-1 viab: 103*

> C[C@@H]1CN([C@H](C)CO)C(=O)c2cccc(NC(=O)NC3CCCCC3)c2O[C@@H]1CN(C)C(=O)Nc1ccc(F)cc1
- NOMO-1 viab: 6

> Cc1ccc(N2C(=O)C(N3C(=O)c4ccccc4C3=O)C2c2ccc(N(C)C)cc2)cc1Cl (configuration not stated)
- NOMO-1 viab: 17

High-throughput results from PubChem.
